HSV augment: enhancers of HSV replication in host cells, fold increase, host cell viability | HSV replication augmentation in cells | maximum fold increase | 220,000 tested, 0.005% active;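 active means peak rise of 1.5-fold or more in the series; tested in PC3 cells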;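 further: first round at 10 µM; read as green reporter fluorescence; hits show the peak of a series up to 25 µM; 1 = signal of infected wells without compound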
GALR2 agonist: GALR2 receptor agonists, primary screen, cell-based | 140,000 tested, 0.48% active | GALR2-expressing cells, agonist activation read-out | Galanin receptor type 2 (Homo sapiens), O43603 | activation, %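 (tested at 5 µM)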;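 active means above mean plus 3 SD of all compounds, about 5% in these data, not always enough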;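 further: 0% = vehicle buffer wells and 100% = reference agonist at full effect; tested in CHO reporter cells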
Target sequence (O43603 whole entry, looked up): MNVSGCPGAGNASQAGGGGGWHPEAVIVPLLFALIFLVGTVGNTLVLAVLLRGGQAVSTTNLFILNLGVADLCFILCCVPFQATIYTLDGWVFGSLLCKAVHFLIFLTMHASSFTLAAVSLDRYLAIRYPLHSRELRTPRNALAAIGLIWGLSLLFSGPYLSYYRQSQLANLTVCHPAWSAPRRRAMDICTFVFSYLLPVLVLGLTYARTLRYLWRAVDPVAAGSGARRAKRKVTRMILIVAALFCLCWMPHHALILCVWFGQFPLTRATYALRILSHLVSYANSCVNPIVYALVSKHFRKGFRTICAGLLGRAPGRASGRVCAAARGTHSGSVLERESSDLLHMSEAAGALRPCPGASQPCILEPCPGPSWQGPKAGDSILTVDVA
RGS16-Gao HTS: modulators of RGS16 binding to Galphao, primary screen, biochemical, human proteins, multiplexed bead flow cytometry. Regulator of G-protein signaling 16 (Homo sapiens) + Guanine nucleotide-binding protein …. 220,000 tested, 0.38% active. binding response (% of control), % at 10 µM. bead-based flow cytometry RGS16-Galphao binding, fluorescence; actives lie on both sides. AID 1441, 2008;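 active means below 25% or above 175%, edge rows of some plates excepted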;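 further: Galphao activated by GDP with aluminum fluoride before binding; 100% = wells without compound and 0% = beads without RGS; some results beyond the cut were filed as inactive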
Target sequence (O15492 whole entry, looked up): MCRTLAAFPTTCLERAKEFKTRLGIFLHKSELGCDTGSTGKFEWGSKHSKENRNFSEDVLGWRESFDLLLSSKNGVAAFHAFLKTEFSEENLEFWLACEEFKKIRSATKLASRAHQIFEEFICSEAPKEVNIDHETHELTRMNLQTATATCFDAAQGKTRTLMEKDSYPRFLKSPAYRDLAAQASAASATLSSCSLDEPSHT
Target sequence (P09471 whole entry, looked up): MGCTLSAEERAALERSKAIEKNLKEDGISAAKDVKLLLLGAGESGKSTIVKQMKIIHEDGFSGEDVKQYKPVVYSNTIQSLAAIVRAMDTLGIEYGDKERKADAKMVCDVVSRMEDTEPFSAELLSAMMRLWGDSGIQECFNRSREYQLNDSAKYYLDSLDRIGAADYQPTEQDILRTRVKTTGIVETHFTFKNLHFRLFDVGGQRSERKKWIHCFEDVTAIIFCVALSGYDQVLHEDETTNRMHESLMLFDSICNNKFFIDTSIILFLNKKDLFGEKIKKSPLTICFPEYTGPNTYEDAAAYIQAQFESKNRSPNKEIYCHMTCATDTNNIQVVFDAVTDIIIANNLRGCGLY
PKD1 inh: inhibitors of human PKD1 kinase, biochemical, fluorescence polarization. PKD1 kinase fluorescence polarization assay. AID 797, 2007. Serine/threonine-protein kinase D1 (Homo sapiens), Q15139. inhibition, %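 (about 10 µM by stock and volumes)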. 200,000 tested, 0.056% active;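 active means inhibition of 50% or more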;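 further: controls were vehicle for no effect and a reference inhibitor for full effect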
Insulin prom inh: inhibitors of insulin promoter-driven GFP, primary screen, imaging, TRM-6 cells (human fetal islet line), eGFP reporter, cell count. reporter expression induced with tamoxifen. inhibition, % at 2 µM. 130,000 tested, 0.9% active. AID 1273, 2008;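 active means inhibition above the mean plus 3 SD, with well images judged a real hit on visual review, cut at about 60% in these data, passing the limit was not always enough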
Insulin prom inh cell count: second read-out of Insulin prom inh, no call of its own (marks repeat the call); normalized cell count, %; measured here: cell count, toxicity; reference of the scale not given here;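 cells exposed to compound for 48 h; stained nuclei by imaging scaled within each plate; lower means fewer cells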
HSV augment primary fold: recorded beside HSV augment, whose call it bears; fold increase; compound at 10 µM; measured here: primary screen fold increase 10 uM; tested in PC3 cells;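 GFP signal in the first replicate; 1 = infected wells without compound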
* hit, by the source's call.

Screening O=C(O)CSc1ccnc2cc(Cl)ccc12 returned HSV augment inactive, RGS16-Gao HTS 100 and HSV augment primary fold 1.
`CCOC(=O)Cn1cc(C#N)c2cccc(CC)c21` gave HSV augment inactive, RGS16-Gao HTS 45, PKD1 inh -10 and HSV augment primary fold 0.96.
CC(O)CN1C(=O)C(CC(=O)Nc2ccc(Cl)cc2)SC1=Nc1ccccc1 (stereo not given) was read as HSV augment inactive, GALR2 agonist 2.0, RGS16-Gao HTS 101, PKD1 inh -10, Insulin prom inh -34, Insulin prom inh cell count 72 and HSV augment primary fold 0.82.
`Cc1ccc(N2C(SCC(=O)O)=NC(=Nc3cccc(C)c3)C23CCCC3)cc1` gave HSV augment inactive, RGS16-Gao HTS 90, PKD1 inh 1 and HSV augment primary fold 1.
Screening COc1ccccc1C(O)P(=O)(OC1CCCCC1)OC1CCCCC1 (stereo not given) returned HSV augment inactive, RGS16-Gao HTS 100 and HSV augment primary fold 1.2.
`CCOc1cc([C@H]2[C@@H]3CCCC[C@]3(O)CCN2CC(=O)NCc2ccco2)ccc1O` gave HSV augment inactive, GALR2 agonist -0.8, RGS16-Gao HTS 100, PKD1 inh 6, Insulin prom inh -14, Insulin prom inh cell count 77 and HSV augment primary fold 0.94.
For CNC(=O)c1nc(C)c(C2(C)CC(c3ccccc3)=NO2)s1 (stereo not given) the results were HSV augment inactive, RGS16-Gao HTS 109 and HSV augment primary fold 0.84.
`Cc1ccccc1-c1ccc(Nc2ccc(C(=O)N3CCOCC3)cc2)nn1` gave HSV augment inactive, GALR2 agonist -2.3, RGS16-Gao HTS 102, PKD1 inh 2 and HSV augment primary fold 0.8.
Screening Cc1cccc(C)c1NC(=O)CSc1nnc(CCCCCNC(=O)OC(C)(C)C)o1 returned HSV augment inactive, GALR2 agonist -0.5, RGS16-Gao HTS 105, PKD1 inh 4, Insulin prom inh -42, Insulin prom inh cell count 101 and HSV augment primary fold 0.94.
`O=C(CCn1cccc1)Nc1ccccc1F` gave HSV augment inactive, GALR2 agonist -0.2, RGS16-Gao HTS 106, PKD1 inh -7, Insulin prom inh 0, Insulin prom inh cell count 69 and HSV augment primary fold 1.
For COC(=O)Nc1sc(C(=O)N(C)C)c(C)c1C(=O)OC the results were HSV augment inactive, GALR2 agonist -1.0, RGS16-Gao HTS 107, PKD1 inh -17, Insulin prom inh -5, Insulin prom inh cell count 113 and HSV augment primary fold 0.92.
Screening COc1cc(C2SCC(=O)N2c2c(C)n(C)n(-c3ccccc3)c2=O)ccc1O (stereo not given) returned HSV augment inactive, RGS16-Gao HTS 97 and HSV augment primary fold 1.
Screening Cc1cccc(OCCSc2nnc(-c3ccoc3C)n2C)c1 returned HSV augment inactive, GALR2 agonist -1.8, RGS16-Gao HTS 104, PKD1 inh -1 and HSV augment primary fold 1.
For CC(C)CCn1cnc2c1c(=O)n(C)c(=O)n2C the results were HSV augment inactive, GALR2 agonist -2.3, RGS16-Gao HTS 101, PKD1 inh -3, Insulin prom inh 52, Insulin prom inh cell count 121 and HSV augment primary fold 0.89.
CC(=O)N(C)c1ccc(NC(=S)Nc2ccc(C(C)C)cc2)cc1 was read as HSV augment inactive, RGS16-Gao HTS 102, PKD1 inh 4 and HSV augment primary fold 0.96.

Of the compounds above, 6 contain a carbonyl joined to an NH by a bond outside any ring:
CC(O)CN1C(=O)C(CC(=O)Nc2ccc(Cl)cc2)SC1=Nc1ccccc1 (stereo not given) was read as HSV augment inactive, GALR2 agonist 2.0, RGS16-Gao HTS 101, PKD1 inh -10, Insulin prom inh -34, Insulin prom inh cell count 72 and HSV augment primary fold 0.82.
`CCOc1cc([C@H]2[C@@H]3CCCC[C@]3(O)CCN2CC(=O)NCc2ccco2)ccc1O` gave HSV augment inactive, GALR2 agonist -0.8, RGS16-Gao HTS 100, PKD1 inh 6, Insulin prom inh -14, Insulin prom inh cell count 77 and HSV augment primary fold 0.94.
For CNC(=O)c1nc(C)c(C2(C)CC(c3ccccc3)=NO2)s1 (stereo not given) the results were HSV augment inactive, RGS16-Gao HTS 109 and HSV augment primary fold 0.84.
Screening Cc1cccc(C)c1NC(=O)CSc1nnc(CCCCCNC(=O)OC(C)(C)C)o1 returned HSV augment inactive, GALR2 agonist -0.5, RGS16-Gao HTS 105, PKD1 inh 4, Insulin prom inh -42, Insulin prom inh cell count 101 and HSV augment primary fold 0.94.
`O=C(CCn1cccc1)Nc1ccccc1F` gave HSV augment inactive, GALR2 agonist -0.2, RGS16-Gao HTS 106, PKD1 inh -7, Insulin prom inh 0, Insulin prom inh cell count 69 and HSV augment primary fold 1.
For COC(=O)Nc1sc(C(=O)N(C)C)c(C)c1C(=O)OC the results were HSV augment inactive, GALR2 agonist -1.0, RGS16-Gao HTS 107, PKD1 inh -17, Insulin prom inh -5, Insulin prom inh cell count 113 and HSV augment primary fold 0.92.

Continued:
For COc1ccccc1C(=O)Nc1cc2c(ccc3ccccc32)oc1=O the results were GALR2 agonist -1.0, RGS16-Gao HTS 101, PKD1 inh -8, Insulin prom inh -43 and Insulin prom inh cell count 150.
Cc1ccc(C(=O)/C=C/Nc2ccc(S(=O)(=O)Nc3onc(C)c3C)cc2)cc1 was read as HSV augment inactive, GALR2 agonist 0.2, RGS16-Gao HTS 102, PKD1 inh -6, Insulin prom inh 0, Insulin prom inh cell count 116 and HSV augment primary fold 0.91.
For O=C(N1CCOCC1)N1CCN(c2ccccc2F)CC1 the results were HSV augment inactive, GALR2 agonist -1.5, RGS16-Gao HTS 97, PKD1 inh 3 and HSV augment primary fold 0.88.
For CSCCc1nc(SCC(=O)Nc2nnc(C)s2)[nH]c1C the results were HSV augment inactive, GALR2 agonist -1.6, RGS16-Gao HTS 125, PKD1 inh -5, Insulin prom inh -40, Insulin prom inh cell count 110 and HSV augment primary fold 0.99.
N#Cc1ccsc1NC(=O)CSc1nnnn1-c1ccc(O)cc1 was read as HSV augment inactive, RGS16-Gao HTS 102, PKD1 inh 0 and HSV augment primary fold 1.1.
`CC1CCCN(C(=O)Cc2ccc(F)cc2)C1` (stereo not given) gave HSV augment inactive, GALR2 agonist -0.5, RGS16-Gao HTS 89, PKD1 inh -6, Insulin prom inh 31, Insulin prom inh cell count 118 and HSV augment primary fold 1.
For O=C(c1ccco1)N1CCN(C(=O)c2cc3sccc3n2Cc2ccccc2)CC1 the results were HSV augment inactive, GALR2 agonist -0.9, RGS16-Gao HTS 99, PKD1 inh 3 and HSV augment primary fold 1.1.
Cc1cc(C)c2cc(CN(CCO)C(c3nnnn3Cc3ccc(F)cc3)C(C)C)c(=O)[nH]c2c1 (stereo not given) was read as HSV augment inactive, GALR2 agonist -2.1, RGS16-Gao HTS 101, PKD1 inh 6, Insulin prom inh -12, Insulin prom inh cell count 123 and HSV augment primary fold 0.93.
Cc1onc(-c2ccccc2)c1C(=O)NNC(=S)NC(=O)/C=C/c1ccccc1 was read as HSV augment inactive, GALR2 agonist -0.8, RGS16-Gao HTS 98, PKD1 inh -1, Insulin prom inh 52, Insulin prom inh cell count 139 and HSV augment primary fold 1.1.
For COc1ccc2nc(NC(=O)C3CCN(S(=O)(=O)c4cccc5nsnc45)CC3)sc2c1 the results were HSV augment inactive, GALR2 agonist -0.6, RGS16-Gao HTS 98, PKD1 inh 6, Insulin prom inh -67, Insulin prom inh cell count 66 and HSV augment primary fold 1.1.
CCO[C@@H]1OC(C(=O)N2CCN(Cc3ccccc3)CC2)=C[C@H](C2CC2)[C@H]1CCCO was read as HSV augment inactive, RGS16-Gao HTS 98, PKD1 inh -5 and HSV augment primary fold 0.84.
Screening CCn1c(SCC(N)=O)nnc1-c1ccc2c(c1)OCO2 returned HSV augment inactive, RGS16-Gao HTS 102, PKD1 inh 8 and HSV augment primary fold 0.96.
Screening CCN1CCN(C(=O)/C=C/c2ccc(C)o2)CC1 returned HSV augment inactive, GALR2 agonist -0.3, RGS16-Gao HTS 113, PKD1 inh -8 and HSV augment primary fold 1.
`N/C(CC1CC1(Cl)Cl)=N\OC(=O)c1ccccc1` (stereo not given) gave HSV augment inactive, RGS16-Gao HTS 96 and HSV augment primary fold 0.96.
COc1ccc2nc(Cl)c(/C=N/Nc3ccccn3)cc2c1 was read as HSV augment inactive, RGS16-Gao HTS 100, PKD1 inh 4, Insulin prom inh -8, Insulin prom inh cell count 131 and HSV augment primary fold 1.
Screening N#CC1=C(N)S[C@H](C(=O)C23CC4CC(CC(C4)C2)C3)[C@H]1c1ccncc1 returned HSV augment inactive, GALR2 agonist 6.1, RGS16-Gao HTS 102, PKD1 inh -2, Insulin prom inh 32, Insulin prom inh cell count 100 and HSV augment primary fold 0.87.
For O=C(COc1ccc(C(=O)NCCc2ccccc2)cc1)Nc1ccccc1 the results were HSV augment inactive, GALR2 agonist -1.9, RGS16-Gao HTS 105, PKD1 inh -1, Insulin prom inh -31, Insulin prom inh cell count 125 and HSV augment primary fold 0.89.
For COc1ccc(NC(=O)/C=C/c2ccccc2)c([N+](=O)[O-])c1 the results were HSV augment inactive, GALR2 agonist -1.4, RGS16-Gao HTS 83, PKD1 inh -8, Insulin prom inh 9, Insulin prom inh cell count 68 and HSV augment primary fold 1.
COc1ccc2c(c1OC)C(=O)N1N=C(c3ccc(Cl)cc3)CC21 (stereo not given) was read as HSV augment inactive, GALR2 agonist -0.5, RGS16-Gao HTS 99, PKD1 inh -2 and HSV augment primary fold 0.89.
`CCn1c(CNC(=O)c2cccc(C)c2)nnc1SCC(=O)Nc1cccc(OC)c1` gave HSV augment inactive, GALR2 agonist -1.1, RGS16-Gao HTS 102, PKD1 inh -7, Insulin prom inh -82, Insulin prom inh cell count 39 and HSV augment primary fold 1.1.
Screening CCOC(=O)C(=O)N1c2ccccc2C(N(C(=O)C(=O)OCC)c2ccccc2)CC1C (stereo not given) returned HSV augment inactive, RGS16-Gao HTS 104 and HSV augment primary fold 0.97.
For Cc1ccc(-n2c(-c3ccco3)nc3c(cnn3-c3ccc(C)cc3)c2=O)cc1 the results were HSV augment inactive, GALR2 agonist 0.7, RGS16-Gao HTS 84, PKD1 inh -5 and HSV augment primary fold 0.76.
`CCCCC(=O)Nc1ccc2c3c(cccc13)C(=O)N2CC` gave HSV augment inactive, GALR2 agonist -1.7, RGS16-Gao HTS 104, PKD1 inh -17, Insulin prom inh -36, Insulin prom inh cell count 105 and HSV augment primary fold 1.1.
COC(=O)c1cccc(C23CC4(C2)[C@H](CN(CC2CCCCC2)[C@@H]4c2ccccc2)C3c2ccccc2)c1 (stereo not given in full) was read as HSV augment inactive, RGS16-Gao HTS 91 and HSV augment primary fold 0.86.
NC(=O)C1CCN(CCC(=O)Nc2cccc(Cl)c2)CC1 was read as HSV augment inactive, GALR2 agonist -0.3, RGS16-Gao HTS 101, PKD1 inh -6, Insulin prom inh -15, Insulin prom inh cell count 82 and HSV augment primary fold 0.97.
`COc1ccccc1C(=O)Nc1ccc(CN2CCCCC2)cc1` gave HSV augment inactive, GALR2 agonist -3.5, RGS16-Gao HTS 99, PKD1 inh 14, Insulin prom inh 5, Insulin prom inh cell count 104 and HSV augment primary fold 1.
O=C(Nc1ccccc1N1CCN(C(=O)c2ccc(Cl)cc2)CC1)c1ccc(Br)cc1 was read as HSV augment inactive, GALR2 agonist 0.1, RGS16-Gao HTS 103, PKD1 inh 4, Insulin prom inh 6, Insulin prom inh cell count 141 and HSV augment primary fold 0.92.
For C=CCN=c1scc(-c2ccccc2)n1/N=C/c1ccccn1 the results were HSV augment inactive, GALR2 agonist -0.4, RGS16-Gao HTS 101, PKD1 inh -5 and HSV augment primary fold 0.93.
`Cc1cccc(NC(=O)c2oc(=O)c3ccccc3c2-c2ccccc2)c1C` gave HSV augment inactive, GALR2 agonist -0.6, RGS16-Gao HTS 83, PKD1 inh -7, Insulin prom inh -38, Insulin prom inh cell count 64 and HSV augment primary fold 1.1.
Screening CC(=O)c1cccc(Nc2nc(=O)c3cccnc3s2)c1 returned HSV augment inactive, GALR2 agonist -1.5, RGS16-Gao HTS 94, PKD1 inh -1, Insulin prom inh -20, Insulin prom inh cell count 116 and HSV augment primary fold 0.93.
Screening Cc1ccnc2nc(C(=O)OCC(=O)NC(=O)NCc3ccco3)nn12 returned HSV augment inactive, RGS16-Gao HTS 94, PKD1 inh -10 and HSV augment primary fold 0.97.
`COc1cc2c(cc1NC(=O)C(C)N1CCN(S(=O)(=O)c3ccc(C)c(C)c3)CC1)oc1ccccc12` (stereo not given) gave HSV augment inactive, GALR2 agonist -0.9, RGS16-Gao HTS 108, PKD1 inh 0, Insulin prom inh -22, Insulin prom inh cell count 83 and HSV augment primary fold 0.75.
For COc1ccc2c3c([nH]c2c1)C(C)N(C(C)=O)CC3 (stereo not given) the results were HSV augment inactive, RGS16-Gao HTS 102 and HSV augment primary fold 0.98.
